VDR inhibitor: Inhibitors of the vitamin D receptor (VDR): qHTS; Vitamin D3 receptor (Homo sapiens), P11473; VDR-SRC2-3 peptide fluorescence polarization, 2 h; Potency, µM, inactives show max response, negative = inhibition, usual class: inhibitors; hit rate 0.93% among 400,000; AID 504847, 2011; active = well fitted inhibition curve with a large enough effect; inconclusive = small, poorly fitted or top-dose-only effect, or another doubt; inactive = no such curve, though single readings can be large or run the other way; also: series mostly up to about 120 µM
Target sequence (P11473 whole entry, looked up): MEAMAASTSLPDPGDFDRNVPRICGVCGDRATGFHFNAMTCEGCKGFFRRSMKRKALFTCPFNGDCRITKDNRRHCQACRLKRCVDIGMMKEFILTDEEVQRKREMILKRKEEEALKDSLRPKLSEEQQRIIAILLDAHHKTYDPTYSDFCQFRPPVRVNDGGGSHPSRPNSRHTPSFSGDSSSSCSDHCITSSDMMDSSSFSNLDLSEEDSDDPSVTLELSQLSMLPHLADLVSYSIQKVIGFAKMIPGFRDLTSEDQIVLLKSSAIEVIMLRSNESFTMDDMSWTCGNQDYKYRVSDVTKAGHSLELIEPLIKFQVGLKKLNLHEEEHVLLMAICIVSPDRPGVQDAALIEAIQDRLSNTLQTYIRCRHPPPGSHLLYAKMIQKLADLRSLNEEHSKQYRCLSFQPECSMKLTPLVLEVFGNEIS
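Two reagent solutions held at 4 deg C in the dark were dispensed, compounds pinned at 23 nl, and the mixture incubated 2 h at room temperature. Read-out: fluorescence polarization of VDR–SRC2-3 peptide binding.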
* hit, by the source's call; ? = inconclusive; & = joins results of further samples. % is scaled to controls: 0 for no effect and ±100 for the full control effect; potency is read from the fitted curve at half-maximal effect. Not all compounds are listed; rates above refer to the full screens.

SMILES	VDR inhibitor
C[C@H](NC(=O)N1C[C@H]2C[C@@H](C1)c1cccc(=O)n1C2)C(=O)Nc1cccc(F)c1	-13%
Clc1ccc2c(c1)C(c1ccccc1)=NCc1nncn1-2	0%
Cc1ccc(Cn2cccc(C(=O)Nc3cc(C)on3)c2=O)cc1	9%
COc1ccc2c3c1OC1C[C@@H](O)C=C[C@@]31CCN(C)C2 (stereo not given in full)	-2%&0%
COC(=O)C1=C(c2ccc(F)cc2F)C[C@@H]2CC[C@H]1N2C(=O)N1CCOCC1	-5%
Cc1ccc(NC(=O)CCNC(=O)N2C[C@H]3C[C@@H](C2)c2cccc(=O)n2C3)c(C)c1	-9%
CN(C)CCN(C)CCc1ccc(Cl)c(Cl)c1	-2%&8%
CC(=O)OC1N=C(c2ccccc2)c2ccccc2NC1=O (stereo not given)	-2%
C[C@]12C=CC(=O)C=C1CC[C@@H]1[C@@H]2CC[C@]2(C)C(=O)CC[C@@H]12	-23%
CC(C)C1C(=O)N2CCC[C@H]2[C@]2(O)O[C@](NC(=O)[C@@H]3C=C4c5cccc6[nH]cc(c56)C[C@H]4N(C)C3)(C(C)C)C(=O)N12 (stereo not given in full)	45µM*
CC(Cl)(Cl)/C(=N/P(=S)(N1CCOCC1)N1CCOCC1)N1CCOCC1	-14%
CCOc1ccccc1-n1c(O)c(C=NCc2ccc3c(c2)OCO3)c(=O)[nH]c1=O	17%
CN(C)C(Cc1ccc(C#N)cc1)C(=O)c1ccccc1 (stereo not given)	-18%
CN[C@@H]1C[C@@H](c2ccc(Cl)c(Cl)c2)c2ccccc21	?
CC(C)c1ccc(N2C(=O)NC(=O)/C(=C/C=C/c3ccco3)C2=O)cc1	-13%
C=CC[N+]1(C)C2CCC1CC(O)C2 (stereo not given)	-8%
CSc1ccc(CN2CCN(c3ccccc3C)CC2)cc1	4%
CCCNS(=O)(=O)c1ccc(OCC(=O)N2CCN(C)CC2)cc1	3%
COC1C(O)C(C)O[C@@H](OC2CC[C@@]3(C)C4CC[C@]5(C)C(C6=CC(=O)OC6)CC[C@@]5(O)C4CC[C@@H]3C2)C1O (stereo not given in full)	12%
Cc1ccc(C)c(NC(=O)CSc2nnc([C@@H](N)Cc3c[nH]c4ccccc34)o2)c1	-9%
O=P(Nc1cccnc1)(Oc1ccccc1)Oc1ccccc1	-13%
CC1(C)C2SCC(=O)N2CCN1CC(=O)NN (stereo not given)	-7%
COC(=O)C1=C(c2cccc(C#N)c2)C[C@@H]2CC[C@H]1N2C(=O)N1CCCC1	-1%
COc1ccccc1N(CC(=O)NC1CCCCC1)C(=O)c1cnn(C(C)C)c1	10%
O=C(C1CCN(c2nc3ccc(Br)cc3s2)CC1)N1CCC2(CC1)OCCO2	-2%
Next part:
SMILES	VDR inhibitor
CC1=NN=C(c2ccc(N)cc2)c2cc3c(cc2C1)OCO3	-2%&-14%
Cl.Cl.Cl.Cl.Cl.Cl.N.N.N.N.NNNNN.NNNNN.O.O.[Ru].[Ru].[Ru]	?
Cc1c(NC(=O)C(C)OC(=O)Cc2ccccc2)c(=O)n(-c2ccccc2)n1C (stereo not given)	-6%
COc1ccc(C2SCC(=O)Nc3c2c(=O)[nH]n3C2CCCCCC2)cc1 (stereo not given)	-14%
CCOC(=O)C1=C(C)N(C)C2(C)CC1c1ccccc1O2 (stereo not given)	-9%
COc1ccc(Cl)cc1C(=O)C1CCCN(Cc2cnc(C)s2)C1 (stereo not given)	8%
Cc1cc(O)c(CN2CCN(c3ccccc3)CC2)cc1C	-1%
O=c1c2ccccc2nc(-c2ccco2)n1-c1ccccn1	6%
O=C(Cc1ccccc1[N+](=O)[O-])N1CCN(Cc2ccc3c(c2)OCO3)CC1	-21%
COc1ccc(Cc2c(O)[nH]c(=O)[nH]c2=O)c(OC)c1	-6%
Cc1sc2nc(COC(=O)Cc3ccccc3)[nH]c(=O)c2c1C	-2%
O=C1NC(=O)N(CCC2=CCCCC2)C(=O)/C1=C/c1ccc(O)cc1	?
N#Cc1c(/N=C/c2ccc(O)cc2O)sc2c1C1CCN2CC1	-24%
Cc1cccc(OP(=O)(Oc2ccccc2)OC(c2ccccc2)C(F)(F)F)c1 (stereo not given)	-1%
N=C1/C(=C\c2ccc(OC(=O)c3ccccc3Cl)cc2)C(=O)N=C2SC(N3CCOCC3)=NN12	?
CCC1(CC(C)c2ccccc2)C(=O)NC(=O)NC1=O (stereo not given)	0%
O=C(C1CCC(=O)N1C1CCCCC1)N1CCC2(CC1)OCCO2 (stereo not given)	-4%
Oc1ccc(C2NCc3ccccc3-n3cccc32)cc1Cl (stereo not given)	-3%&4%
Cc1c(C)c2ccc(OCC(=O)N3CCN(Cc4ccccc4)CC3)cc2oc1=O	6%
CNC(C)[C@@H](O)c1ccccc1 (stereo not given in full)	2%
Cc1ccc(N2CCN(CCc3ccccc3)CC2)cc1	26%
N#CC(C#N)=NNc1ccc(OC(F)(F)F)cc1	0.89µM*
NCCc1ccc(OCc2ccccc2)c(OCc2ccccc2)c1	-3%
CC1([N+](=O)[O-])COP(=O)(Nc2cccc(F)c2)OC1 (stereo not given)	1%
CC1(C)CN=C(Nc2ccc(F)c(Cl)c2)S1	-26%
New compounds follow.
SMILES	VDR inhibitor
CCCCn1c(C)c(C(=O)OCC)c2c(CN3CCCC3)c(O)ccc21	7%
CCCCCn1c(NC(=O)c2ccco2)c(C(=O)OCC)c2nc3ccccc3nc21	5µM*
COC(=O)C1=C(c2ccccc2)C[C@@H]2CC[C@H]1N2C(=O)NC(C)C	-14%
CCCCCc1nc2ccccc2c(=O)n1-c1ccc(Cl)cc1[N+](=O)[O-]	15%
O=C(c1cccc2ccccc12)C1CCCN(Cc2ccon2)C1 (stereo not given)	-14%
Cc1nc2ccccc2c(=O)n1-c1ccc(C(=O)O)cc1	-18%
Cc1nnc(NC(=O)c2cccn(Cc3cccc(Cl)c3)c2=O)s1	3%
Cc1c2cnn(CC(=O)N3CCC4(CC3)OCCO4)c(=O)c2c(C)n1Cc1ccccc1	?
CCN1CCN(c2cn[nH]c(=O)c2Cl)CC1	8%
O[N+]1=CC=CCC1=S.On1ccccc1=S.[Zn]	45µM*
CCOC(=O)c1c(C)n(Cc2ccco2)c2ccc(O)cc12	-4%
Cc1nc2c(-c3ccc(F)cc3)c(C)nn2c(C)c1CCC(=O)N1CCC2(CC1)OCCO2	-4%
CC(=O)Nc1cc(C(=O)N2CCC3(CC2)OCCO3)ccc1Sc1ccc(C)cc1	5%
Clc1ccccc1Cl	3%
CCC(=NCCCN1CCOCC1)c1c(O)n(Cc2ccccc2)c(=O)[nH]c1=O	-10%
CCOc1ccc(CN(CCc2ccc3c(c2)OCO3)Cc2cc(OC)ccc2O)cc1	4%
O=C(NCc1ccccc1)c1cccn(Cc2ccccc2)c1=O	-2%
CCN1C[C@]2(COC(=O)c3ccccc3N)CC[C@H](OC)C34[C@@H]5C[C@H]6[C@H](OC)[C@@H]5[C@](O)(C[C@@H]6OC)[C@@](O)([C@H]13)[C@@H](OC)[C@@H]42	-22%
NCC(N)C(=O)c1ccccc1 (stereo not given)	-10%
C[C@H]1CC[C@@H]2[C@@H](C)[C@H]3C(C[C@H]4C5CC[C@H]6C[C@@H](O)CC[C@]6(C)C5CC[C@]34C)N2C1 (stereo not given in full)	-16%
COc1ccc(OC)c(N=Cc2c(O)[nH]c(=O)[nH]c2=O)c1	-7%
COc1cccc(-n2c(/C=C/c3ccccn3)nc3ccccc3c2=O)c1	-10%
CNC(C)C(O)c1ccc(O)cc1 (stereo not given)	0%
COC(=O)C1=C(N)Oc2cc(C)oc(=O)c2C12C(=O)Nc1ccccc12 (stereo not given)	?
CN1C(=O)C[N+]([O-])=C(c2ccccc2)c2cc(Cl)ccc21	-1%

16 structures already listed, ordered by number of heavy atoms, rising:
SMILES	VDR inhibitor
Clc1ccccc1Cl	3%
NCC(N)C(=O)c1ccccc1 (stereo not given)	-10%
CNC(C)C(O)c1ccc(O)cc1 (stereo not given)	0%
CCN1CCN(c2cn[nH]c(=O)c2Cl)CC1	8%
O[N+]1=CC=CCC1=S.On1ccccc1=S.[Zn]	45µM*
CN1C(=O)C[N+]([O-])=C(c2ccccc2)c2cc(Cl)ccc21	-1%
CCOC(=O)c1c(C)n(Cc2ccco2)c2ccc(O)cc12	-4%
O=C(NCc1ccccc1)c1cccn(Cc2ccccc2)c1=O	-2%
CCCCn1c(C)c(C(=O)OCC)c2c(CN3CCCC3)c(O)ccc21	7%
COc1cccc(-n2c(/C=C/c3ccccn3)nc3ccccc3c2=O)c1	-10%
C[C@H]1CC[C@@H]2[C@@H](C)[C@H]3C(C[C@H]4C5CC[C@H]6C[C@@H](O)CC[C@]6(C)C5CC[C@]34C)N2C1 (stereo not given in full)	-16%
CC(=O)Nc1cc(C(=O)N2CCC3(CC2)OCCO3)ccc1Sc1ccc(C)cc1	5%
CCCCCn1c(NC(=O)c2ccco2)c(C(=O)OCC)c2nc3ccccc3nc21	5µM*
CCOc1ccc(CN(CCc2ccc3c(c2)OCO3)Cc2cc(OC)ccc2O)cc1	4%
Cc1nc2c(-c3ccc(F)cc3)c(C)nn2c(C)c1CCC(=O)N1CCC2(CC1)OCCO2	-4%
CCN1C[C@]2(COC(=O)c3ccccc3N)CC[C@H](OC)C34[C@@H]5C[C@H]6[C@H](OC)[C@@H]5[C@](O)(C[C@@H]6OC)[C@@](O)([C@H]13)[C@@H](OC)[C@@H]42	-22%

New compounds follow
SMILES	VDR inhibitor
C[C@]12CCC3C(C=CC4=CC(=O)CC[C@]43C)C1CC[C@]2(O)CCC(=O)O (stereo not given in full)	-12%
O=c1c2ccccc2nc(/C=C/c2ccccn2)n1-c1ccccc1	3%
CCOC(=O)CC1=C(C(=O)OCC)C2(C(=O)N1CC(=O)OC)C(C#N)=C(N)Oc1ccccc12 (stereo not given)	-1%
Cc1ccc(-n2c(O)c(C=NC3CCCC3)c(=O)[nH]c2=O)c(C)c1	-11%
O=C1/C(=C/c2ccncc2)N2CCC1CC2	1%
CC(=O)OC1CC[C@@]2(C)C(=CC(=O)C3C4CCC(OC(C)=O)[C@@]4(C)CCC32)C1 (stereo not given in full)	-12%
CCCCn1c(O)c(C(CC)=NCCc2ccccc2)c(=O)[nH]c1=O	-4%
O=[P+](Cc1ccccc1)Cc1ccccc1	11%
CN1C(=O)COc2c(C(=O)N[C@@H]3CN4CCC3CC4)cc(Cl)cc21	1%
CCN1C[C@]2(CO)CC[C@H](OC)[C@@]34C2[C@H](OC)[C@@](O)(C13)[C@@]1(O)C[C@H](OC)[C@H]2C[C@@H]4[C@@H]1[C@H]2OC	?
Cc1ccc(-n2nc(C)c3c2NC(=O)CSC3c2ccc(O)cc2)cc1Cl (stereo not given)	18%
NCc1cc(=O)[nH]o1	4%&13%
COC(=O)C1=C(C)OC(N)=C(C#N)C12C(=O)Nc1ccccc12 (stereo not given)	-4%
O=[N+]([O-])c1c2ccccc2cc2ccccc12	-9%
CN1[C@@H](CC(=O)c2ccccc2)CCC[C@@H]1C[C@@H](O)c1ccccc1	7%
COC(=O)C1=C(c2ccc(S(C)(=O)=O)cc2)C[C@@H]2CC[C@H]1N2C(=O)NCCO	-20%
CCCCC/C=C\C/C=C\C/C=C\C/C=C\CCCC(=O)N(Cc1ccc(O)c(Cl)c1)Cc1ccc(O)c(Cl)c1	14µM*
Cc1ccc(-c2nc(N(C)C3CCN(C)CC3)c3ccccc3n2)cc1	9%
O=Cc1cn(Cc2cccc(F)c2)c2ccccc12	-1%
Cc1ccsc1CNCCc1ccc(F)cc1	1%
Cc1cccc(N=Cc2c(O)n(C)c(=O)n(C)c2=O)c1	-4%
Fc1ccc(C2N3CCCN23)cc1 (stereo not given)	5%
O=C(Nc1ccc(F)cc1F)c1cccnc1Oc1cccc(C(F)(F)F)c1	-1%&8%
O=C(Cc1ccccc1)N1CCN(CCCc2ccccc2)CC1	18%
CC(C)N(CC#CCC1(O)c2ccccc2-c2ccccc21)C(C)C	8%
Additional results:
SMILES	VDR inhibitor
CC(Cc1ccccc1Sc1ccccc1)N(C)C (stereo not given)	-11%
O=C1NC(=O)N(Cc2ccccc2)C(=O)/C1=C/C=C/c1ccco1	?
Cn1c(=O)n(CC(=O)N2CCC3(CC2)OCCO3)c(=O)c2ccccc21	-10%
COc1cc([N+](=O)[O-])c2nc(C)ccc2c1[N+](=O)[O-]	-10%
CC(=O)NC(Cc1ccc(N(CCCl)CCCl)cc1)C(=O)NCC(=O)NCC(=O)O (stereo not given)	-2%
CCCC(=O)NC(Oc1ccc(C(C)=O)cc1)C(Cl)(Cl)Cl (stereo not given)	-3%
CN1C(=O)/C(=C/c2ccc(Cl)s2)C(=O)NC1=S	20µM*
Cc1ccc2c(c1)CC1(CN2C)C(=O)NC(=O)N(C(C)C)C1=O (stereo not given)	-2%
CCOC(=O)[C@]1(C#N)[C@@H]2C=CC(C(C)=O)=CN2[C@@H](C(N)=O)[C@@H]1c1ccsc1	0%
CCCCC/C=C\C/C=C\C/C=C\CCCCC(=O)NCCc1ccc(O)c(O)c1	6%
CC1(C)C(C=C(Cl)Cl)C1C(=O)OC(C#N)c1cccc(Oc2ccccc2)c1 (stereo not given)	6%
C[n+]1ccc(-c2ccncc2)cc1	6%
O=C1CSC2N1CCNC21CCCCC1 (stereo not given)	-5%
O=C(O)COc1nc(Cl)c(Cl)cc1Cl	-16%
O=C(COc1ccc2ccccc2c1)N1CCN(CC2CC3C=CC2C3)CC1 (stereo not given)	5%
C=C(C)CC1(CC)C(=O)NC(=S)NC1=O	2%
C/C1=C/C(=O)O[C@@H]2C[C@@H](CC[C@H](C)/C=C\CC1)O[C@@](O)(C1CSC(=O)N1)C2 (stereo not given in full)	?

3 structures from above, arranged by molar mass, high to low.
SMILES	VDR inhibitor
CC(=O)NC(Cc1ccc(N(CCCl)CCCl)cc1)C(=O)NCC(=O)NCC(=O)O (stereo not given)	-2%
CC(Cc1ccccc1Sc1ccccc1)N(C)C (stereo not given)	-11%
C[n+]1ccc(-c2ccncc2)cc1	6%

Screens as filed in PubChem.
